KCNQ2 inh – KCNQ2 channel blockers in CHO-K1 cells – cell-based, FluxOR thallium flux, B-score, primary screen (AID 2156). O88943. 20 min; hits give low values; only compounds with negative scores are shown here; some inactives read as strong as hits. B-score at 10 µM. 310,000 compounds, 1.1% hits;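 active = fluorescence ratio B-score at most minus 3 library SDs, with starting brightness B-score within 2 library SDs, cut at about -5.5 in these data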
Target sequence (O88943 whole entry, looked up): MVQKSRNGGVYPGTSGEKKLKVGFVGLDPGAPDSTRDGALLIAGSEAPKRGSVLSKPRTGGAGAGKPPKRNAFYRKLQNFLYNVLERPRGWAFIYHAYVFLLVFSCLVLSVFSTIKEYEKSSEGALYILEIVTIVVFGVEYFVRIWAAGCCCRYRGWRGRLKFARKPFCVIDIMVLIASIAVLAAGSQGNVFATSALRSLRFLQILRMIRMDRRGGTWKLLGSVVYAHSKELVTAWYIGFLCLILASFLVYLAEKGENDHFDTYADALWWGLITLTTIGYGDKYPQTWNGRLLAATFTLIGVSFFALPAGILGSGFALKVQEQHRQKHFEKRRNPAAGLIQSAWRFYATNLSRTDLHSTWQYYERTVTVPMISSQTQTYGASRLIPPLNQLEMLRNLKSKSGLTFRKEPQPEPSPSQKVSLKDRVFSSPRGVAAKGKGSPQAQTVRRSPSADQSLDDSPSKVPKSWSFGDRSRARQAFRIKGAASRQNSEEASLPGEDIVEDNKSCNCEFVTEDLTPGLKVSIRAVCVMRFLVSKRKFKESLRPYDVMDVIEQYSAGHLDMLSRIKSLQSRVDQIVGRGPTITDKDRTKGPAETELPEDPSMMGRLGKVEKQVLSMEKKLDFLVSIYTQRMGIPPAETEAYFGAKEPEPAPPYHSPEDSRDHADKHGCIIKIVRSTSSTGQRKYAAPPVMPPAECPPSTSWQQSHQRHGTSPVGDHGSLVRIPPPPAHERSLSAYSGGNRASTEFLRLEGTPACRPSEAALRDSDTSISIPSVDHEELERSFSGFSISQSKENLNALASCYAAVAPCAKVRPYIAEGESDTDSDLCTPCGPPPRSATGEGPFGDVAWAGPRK
KCNQ2 inh baseline – also measured in KCNQ2 inh; calls as there; B-score; measured here: initial fluorescence intensity artifact check;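 brightness before thallium and not channel activity; 0 = typical well and far values either way flag optical interference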
* = called active by the depositor.

What do the screens show for `Cc1cc(C)nc(N(C#N)CC(=O)N2CCC(C(N)=O)CC2)n1`?
KCNQ2 inh: inactive; KCNQ2 inh baseline: 0.07

What do the screens show for `COc1ccccc1N1CCN(CC(=O)Nc2ccc(Cl)c(C(F)(F)F)c2)CC1`?
KCNQ2 inh: inactive; KCNQ2 inh baseline: -1.22

Results for Cc1ccc(C(C)n2cc(C(=O)NCc3cccnc3)nn2)cc1 (configuration not stated) ?
KCNQ2 inh: inactive; KCNQ2 inh baseline: -0.26

Results for COc1ccccc1NC(=O)CNS(=O)(=O)c1ccccc1 ?
KCNQ2 inh: inactive; KCNQ2 inh baseline: 0.88

How did COc1ccc(C(C)=O)cc1COC(=O)CCCN1C(=O)c2ccccc2C1=O do in these assays?
KCNQ2 inh: inactive; KCNQ2 inh baseline: 1.04

What do the screens show for `C=CCOc1ccccc1CN1CCCC(CCC(=O)N(C)CCc2ccccn2)C1` (configuration not stated)?
KCNQ2 inh: inactive; KCNQ2 inh baseline: -0.01

How did Cn1cc(C(=O)Nc2ccc3c(c2)CCC3)cn1 do in these assays?
KCNQ2 inh: inactive; KCNQ2 inh baseline: -1.35

What do the screens show for `O=C1c2ccccc2C(=O)C12Cc1ccccc1N1CCN(c3ccccc3)CC12` (configuration not stated)?
KCNQ2 inh: inactive; KCNQ2 inh baseline: 1.95

What do the screens show for `COc1ccc([N+](=O)[O-])cc1NC(=O)C(C)Sc1nc(-c2ccccc2)cs1` (configuration not stated)?
KCNQ2 inh: inactive; KCNQ2 inh baseline: 0.37

What do the screens show for `CC1=Nc2ccc(C)cc2/C1=C/c1c(N)n2oc(C)cc2nc1=O`?
KCNQ2 inh: inactive; KCNQ2 inh baseline: 0.07

How did COC(=O)c1ccc(C2Nc3ccc(/C(C)=N/NC(=O)C(OC)c4ccccc4)cc3C3C=CCC32)cc1 (configuration not stated) do in these assays?
KCNQ2 inh: inactive; KCNQ2 inh baseline: 0.12

What do the screens show for `COc1ccc(Cn2nnnc2CN(CCCN2CCOCC2)Cc2cc3cc(OC)ccc3[nH]c2=O)cc1`?
KCNQ2 inh: inactive; KCNQ2 inh baseline: -0.3

Results for OCC1(Cc2cccc(C(F)(F)F)c2)CCN(Cc2cc3ccccc3o2)CC1 ?
KCNQ2 inh: inactive; KCNQ2 inh baseline: -0.08

What do the screens show for `CCOC(=O)C1(CCOc2ccccc2)CCN(Cc2cccc(OC)c2O)CC1`?
KCNQ2 inh: inactive; KCNQ2 inh baseline: -0.01

What do the screens show for `COc1ccc(S(=O)(=O)Cc2ccccc2)cc1N`?
KCNQ2 inh: inactive; KCNQ2 inh baseline: -1.83

Results for COCCNC(=O)c1c(N)sc2c1CCCC2 ?
KCNQ2 inh: inactive; KCNQ2 inh baseline: -0.42

Results for COc1ccc2nc(SCC(=O)NN)cc(C)c2c1 ?
KCNQ2 inh: inactive; KCNQ2 inh baseline: 0.46

Results for N#Cc1cc2cc3c(cc2nc1SCC(=O)N1CCCC1)OCCO3 ?
KCNQ2 inh: inactive; KCNQ2 inh baseline: 0.14

What do the screens show for `Cc1cnc(C(=O)OC(C)C(=O)NCc2ccccc2)cn1` (configuration not stated)?
KCNQ2 inh: inactive; KCNQ2 inh baseline: -0.88

How did CSc1ccccc1C(=O)NCCc1ccc(S(=O)(=O)N2CCCCC2)cc1 do in these assays?
KCNQ2 inh: inactive; KCNQ2 inh baseline: -1.13

What do the screens show for `N#Cc1cnn(Cc2ccccc2)c1N`?
KCNQ2 inh: inactive; KCNQ2 inh baseline: 0.34

How did CCOc1ccccc1N(C(=O)c1snc(C(N)=O)c1N)C(CC)C(=O)NC1CCCC1 (configuration not stated) do in these assays?
KCNQ2 inh: inactive; KCNQ2 inh baseline: 1.27

What do the screens show for `CN(CC(=O)Nc1ccccc1Cl)C(=O)COC(=O)c1nc(Cl)c(Cl)c(Cl)c1Cl`?
KCNQ2 inh: inactive; KCNQ2 inh baseline: -2.45

What do the screens show for `O=C(OC1CCOC1=O)c1cccc(S(=O)(=O)Nc2cccc(Cl)c2)c1` (configuration not stated)?
KCNQ2 inh: inactive; KCNQ2 inh baseline: -2.82

What do the screens show for `CCNC(=O)C(C)NC(=O)C1=NN(c2ccccc2)C(=O)CC1` (configuration not stated)?
KCNQ2 inh: inactive; KCNQ2 inh baseline: -1.07

Results for CN(C)C(=O)N1CCC(C(=O)NCc2ccc(F)cc2Cl)CC1 ?
KCNQ2 inh: inactive; KCNQ2 inh baseline: -2.72

What do the screens show for `COc1ccccc1C(=O)Nc1ccc(C)cc1C(=O)c1ccccc1`?
KCNQ2 inh: inactive; KCNQ2 inh baseline: 0.86

How did CCO[C@H]1OC(C(=O)N2CCCCCCC2)=C[C@@H](c2csc3ccccc23)[C@@H]1CCCO do in these assays?
KCNQ2 inh: inactive; KCNQ2 inh baseline: -0.6

What do the screens show for `COCCNC(=O)COC(=O)C1=Cc2ccccc2OC1`?
KCNQ2 inh: inactive; KCNQ2 inh baseline: 0.35

Results for CC(C)Cc1nnc(NC(=O)c2cccc(S(=O)(=O)N3CCN(C)CC3)c2)s1 ?
KCNQ2 inh: inactive; KCNQ2 inh baseline: 1.16

How did CCCCN(C(=O)C(C)Oc1ccc(Cl)cc1)c1c(N)n(CCCC)c(=O)[nH]c1=O (configuration not stated) do in these assays?
KCNQ2 inh: inactive; KCNQ2 inh baseline: 0.74

Results for NCCCSC1=NCCCN1 ?
KCNQ2 inh: inactive; KCNQ2 inh baseline: 0.75

Results for N#CCCN(C(=O)COC(=O)CCc1c[nH]c2ccccc12)c1ccc(F)cc1 ?
KCNQ2 inh: inactive; KCNQ2 inh baseline: -0.13

Results for NCCCCCc1nnc(SCc2ccccc2Cl)o1 ?
KCNQ2 inh: inactive; KCNQ2 inh baseline: -0.28

How did COCCN(C(=O)Nc1ccccc1)c1ccccc1 do in these assays?
KCNQ2 inh: inactive; KCNQ2 inh baseline: 0.48

How did COc1ccc(CCC(=O)N2CC(C)OC(C)C2)cc1 (configuration not stated) do in these assays?
KCNQ2 inh: inactive; KCNQ2 inh baseline: 0.6

Results for CCOc1ccc(S(=O)(=O)Nc2ccc(C(=O)NCC(c3ccco3)N(C)C)cc2)cc1 (configuration not stated) ?
KCNQ2 inh: inactive; KCNQ2 inh baseline: 0.67

What do the screens show for `COc1ccc(Cl)cc1NC(=O)CN(C)C(=O)Cn1cnc2c1c(=O)n(C)c(=O)n2C`?
KCNQ2 inh: inactive; KCNQ2 inh baseline: -0.67

What do the screens show for `C=CCn1c(N)c(C(=O)Nc2ccc(C)cc2)sc1=S`?
KCNQ2 inh: inactive; KCNQ2 inh baseline: -0.67

Results for COC(=O)c1ccc(Cl)cc1N(Cc1c(F)cccc1Cl)S(C)(=O)=O ?
KCNQ2 inh: inactive; KCNQ2 inh baseline: 0.08

Results for Cc1ccc2nc(C(F)C(F)(F)F)[nH]c2c1 (configuration not stated) ?
KCNQ2 inh: inactive; KCNQ2 inh baseline: -0.07

Results for Cc1ccccc1OCC(O)Cn1c2ccccc2c2ccccc21 (configuration not stated) ?
KCNQ2 inh: inactive; KCNQ2 inh baseline: -0.09

What do the screens show for `COCCN(C(=O)COC(=O)c1ccccc1Oc1ccccc1)c1c(N)n(Cc2ccccc2)c(=O)[nH]c1=O`?
KCNQ2 inh: inactive; KCNQ2 inh baseline: 1.02

Results for CC1Cc2ccccc2N1C(=O)c1ccc(N2CCCCC2)c([N+](=O)[O-])c1 (configuration not stated) ?
KCNQ2 inh: inactive; KCNQ2 inh baseline: -0.81

What do the screens show for `CC(=O)c1c2c3c(c(Br)ccc3n(C)c1=O)C(=O)c1ccccc1-2`?
KCNQ2 inh: inactive; KCNQ2 inh baseline: 2.97

What do the screens show for `CS(=O)(=O)N(CC(=O)N1CCCCCC1)c1cccc(Br)c1`?
KCNQ2 inh: inactive; KCNQ2 inh baseline: 0.09

What do the screens show for `CCOCCCNC(=O)C(C)NS(=O)(=O)c1ccc(C)cc1` (configuration not stated)?
KCNQ2 inh: inactive; KCNQ2 inh baseline: -0.01

Results for COc1ccc2ccccc2c1CNCc1ccc(C)cc1 ?
KCNQ2 inh: inactive; KCNQ2 inh baseline: 1.52

Results for O=C(Cc1ccc2ccccc2c1)Nc1ccccc1Br ?
KCNQ2 inh: inactive; KCNQ2 inh baseline: -0.74

Results for Nc1n[nH]c(N)c1N=Nc1ccccc1F ?
KCNQ2 inh: inactive; KCNQ2 inh baseline: 0.4

What do the screens show for `CC1CCN(CCCNC(=O)CCCNC(=O)Cn2cnc3sc4c(c3c2=O)CCCC4)CC1`?
KCNQ2 inh: inactive; KCNQ2 inh baseline: 0.03

Results for COc1ncnc2c1oc1nc(C(C)C)c3c(c12)CC(C)(C)OC3 ?
KCNQ2 inh: inactive; KCNQ2 inh baseline: 2.81

What do the screens show for `CC1CC(C)CN(C(=O)c2ccc(CNc3c(N4CCCC4)c(=O)c3=O)cc2)C1` (configuration not stated)?
KCNQ2 inh: inactive; KCNQ2 inh baseline: -1.66

How did CC(=O)c1ccccc1NC(=O)COC(=O)CSCC(=O)Nc1cc(C)on1 do in these assays?
KCNQ2 inh: inactive; KCNQ2 inh baseline: -1.25

What do the screens show for `OCCC1CN(Cc2nc3ccccc3s2)CCN1C1CCCCC1` (configuration not stated)?
KCNQ2 inh: inactive; KCNQ2 inh baseline: 0.42

What do the screens show for `CC(=O)Nc1c(C)ccc(S(N)(=O)=O)c1C`?
KCNQ2 inh: inactive; KCNQ2 inh baseline: 0.6

How did Cc1ccc(S(=O)(=O)NCCC(=O)NC(C)c2ccccc2)cc1 (configuration not stated) do in these assays?
KCNQ2 inh: inactive; KCNQ2 inh baseline: -0.18

What do the screens show for `Cc1ccc(NC2CCCN(C(=O)c3ccc4[nH]ccc4c3)C2)cc1C` (configuration not stated)?
KCNQ2 inh: inactive; KCNQ2 inh baseline: -0.1

Results for OC(CNCC1COc2ccccc2O1)COc1ccccc1F (configuration not stated) ?
KCNQ2 inh: inactive; KCNQ2 inh baseline: -0.17

How did CC(=O)Nc1nc(=S)n(-c2ccccc2)[nH]1 do in these assays?
KCNQ2 inh: inactive; KCNQ2 inh baseline: 1.25

How did O=C1N/C(=N\N=C\c2ccc3ncccc3c2)SC1Cc1ccc(SC(F)F)cc1 (configuration not stated) do in these assays?
KCNQ2 inh: inactive; KCNQ2 inh baseline: -1.95

Results for COc1cc(/C=C/C2=CC(C)(C)NC(=S)N2)cc(OC)c1OC ?
KCNQ2 inh: inactive; KCNQ2 inh baseline: -0.11

Results for COc1ccc(NC(=O)CCCC(=O)c2ccccc2)cc1 ?
KCNQ2 inh: inactive; KCNQ2 inh baseline: -1.14

How did C=CCNC(=O)C(=O)Nc1ccc2c(c1)N(S(=O)(=O)c1cccs1)CCC2 do in these assays?
KCNQ2 inh: inactive; KCNQ2 inh baseline: -0.42

Results for O=C(N/C(C(=O)N1CCOCC1)=C(\Sc1ncccn1)c1ccccc1)c1ccccc1 ?
KCNQ2 inh: inactive; KCNQ2 inh baseline: 0.19

Results for CN(Cc1ccccc1)S(=O)(=O)c1ccccc1[N+](=O)[O-] ?
KCNQ2 inh: inactive; KCNQ2 inh baseline: -1.17

How did CS(=O)(=O)Nc1nnc(Cc2ccccc2)s1 do in these assays?
KCNQ2 inh: inactive; KCNQ2 inh baseline: 1.11

Results for O=C(NCCc1ccccc1)C(=O)NCCC1CCCCN1S(=O)(=O)c1cccs1 (configuration not stated) ?
KCNQ2 inh: inactive; KCNQ2 inh baseline: -0.14

How did NC(=O)C1CCCN(CC(O)COCc2ccc(Cl)cc2)C1 (configuration not stated) do in these assays?
KCNQ2 inh: inactive; KCNQ2 inh baseline: -0.29

Results for O=C1OCC(CO)(CO)N=C1NNc1cc(Cl)ccc1Cl ?
KCNQ2 inh: inactive; KCNQ2 inh baseline: 96

What do the screens show for `COc1cc(/C=C2\SC(=S)N(NS(=O)(=O)c3ccc(C)cc3)C2=O)ccc1O`?
KCNQ2 inh: inactive; KCNQ2 inh baseline: 2.63

Results for O=C(Cn1cnc2c(nnn2Cc2ccccc2)c1=O)NCc1ccco1 ?
KCNQ2 inh: inactive; KCNQ2 inh baseline: 0.99

What do the screens show for `COc1cc(C(=O)NCC2(N(C)C)CCCCC2)ccc1OCc1ccccc1`?
KCNQ2 inh: inactive; KCNQ2 inh baseline: 6.64

What do the screens show for `O=C(COc1ccccc1Br)Nc1ccc2c(c1)OCCCO2`?
KCNQ2 inh: inactive; KCNQ2 inh baseline: -0.05

Filtered by structure: those above containing a Cl atom
What do the screens show for `COc1ccccc1N1CCN(CC(=O)Nc2ccc(Cl)c(C(F)(F)F)c2)CC1`?
KCNQ2 inh: inactive; KCNQ2 inh baseline: -1.22

What do the screens show for `CN(CC(=O)Nc1ccccc1Cl)C(=O)COC(=O)c1nc(Cl)c(Cl)c(Cl)c1Cl`?
KCNQ2 inh: inactive; KCNQ2 inh baseline: -2.45

What do the screens show for `O=C(OC1CCOC1=O)c1cccc(S(=O)(=O)Nc2cccc(Cl)c2)c1` (configuration not stated)?
KCNQ2 inh: inactive; KCNQ2 inh baseline: -2.82

Results for CN(C)C(=O)N1CCC(C(=O)NCc2ccc(F)cc2Cl)CC1 ?
KCNQ2 inh: inactive; KCNQ2 inh baseline: -2.72

How did CCCCN(C(=O)C(C)Oc1ccc(Cl)cc1)c1c(N)n(CCCC)c(=O)[nH]c1=O (configuration not stated) do in these assays?
KCNQ2 inh: inactive; KCNQ2 inh baseline: 0.74

Results for NCCCCCc1nnc(SCc2ccccc2Cl)o1 ?
KCNQ2 inh: inactive; KCNQ2 inh baseline: -0.28

What do the screens show for `COc1ccc(Cl)cc1NC(=O)CN(C)C(=O)Cn1cnc2c1c(=O)n(C)c(=O)n2C`?
KCNQ2 inh: inactive; KCNQ2 inh baseline: -0.67

Results for COC(=O)c1ccc(Cl)cc1N(Cc1c(F)cccc1Cl)S(C)(=O)=O ?
KCNQ2 inh: inactive; KCNQ2 inh baseline: 0.08

How did NC(=O)C1CCCN(CC(O)COCc2ccc(Cl)cc2)C1 (configuration not stated) do in these assays?
KCNQ2 inh: inactive; KCNQ2 inh baseline: -0.29

Results for O=C1OCC(CO)(CO)N=C1NNc1cc(Cl)ccc1Cl ?
KCNQ2 inh: inactive; KCNQ2 inh baseline: 96

Bioassay records as filed in PubChem BioAssay.

A portion of the library, so the mix of outcomes need not match the whole.
